# Compound activity: PubChem, National Center for Advancing Translational Sciences (NCATS)
# Bst PK mod: alters activity of Bacillus stearothermophilus pyruvate kinase; Potency, µM; partly purified Bacillus stearothermophilus pyruvate kinase, luminescence ATP production; ribose 5-phosphate activator present at AC10; 51,000 tested, 1.2% active; in the data active means potency below about 11 µM; inconclusive means mostly about 12 µM to 25 µM; inactive means weaker than that;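 the screen sought inhibitors and activators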;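 further: potency means the concentration at half of the fitted maximal effect; scaled between full activation by ribose 5 phosphate and full inhibition by luteolin; about four in five hits inhibit and the cells do not say which; series up to 57 µM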
# YjeE inh: inhibitors of E. coli YjeE (TsaE). P0AF67. Potency, µM. 71,000 tested, 0.05% active. purified YjeE, fluorescence polarisation of a bound ADP probe; active = well fitted falling curve; inconclusive = weaker or top-dose-only fall, or a rising curve; inactive = flat or poorly fitted curve;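 further: top concentration of the series not given in the record; excess ADP was the control for the full effect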
#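 Fluorescence polarization of a BODIPY Texas Red–ADP probe (2 uM) bound to purified YjeE (10 uM) was read after 15 min room-temperature incubation with compounds. Loss of polarization marks inhibitors; ADP serves as titrated control.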
# An asterisk follows results filed as active; i = inactive; ? = inconclusive; . = not tested or not shown.
# Preview, 6 compounds:
No.	structure	YjeE inh	Bst PK mod
1	COc1nonc1NC(=O)CSc1nc2ccccc2[nH]1	i	>57
2	CCN(CC)CCCNC(=O)c1cc(-c2cccc(Cl)c2)on1	i	>57
3	CC1(C)CC(=O)C2=C(C1)Nc1ccccc1NC2c1ccc2c(c1)OCO2 (stereo not given)	i	.
4	CC1=CC(C)(C)N2C(=O)C3(C(C#N)=C(N)OC4=C3C(=O)CC(C)(C)C4)c3cccc1c32 (stereo not given)	i	>57
5	Cc1nc2ncnn2c(C)c1Cc1ccc(Cl)cc1F	i	.
6	COc1cccc(C(=O)Nc2ccc(S(=O)(=O)Nc3onc(C)c3C)cc2)c1	i	.

# Main list (from the top)
No.	structure	YjeE inh	Bst PK mod
1	COc1nonc1NC(=O)CSc1nc2ccccc2[nH]1	i	>57
2	CCN(CC)CCCNC(=O)c1cc(-c2cccc(Cl)c2)on1	i	>57
3	CC1(C)CC(=O)C2=C(C1)Nc1ccccc1NC2c1ccc2c(c1)OCO2 (stereo not given)	i	.
4	CC1=CC(C)(C)N2C(=O)C3(C(C#N)=C(N)OC4=C3C(=O)CC(C)(C)C4)c3cccc1c32 (stereo not given)	i	>57
5	Cc1nc2ncnn2c(C)c1Cc1ccc(Cl)cc1F	i	.
6	COc1cccc(C(=O)Nc2ccc(S(=O)(=O)Nc3onc(C)c3C)cc2)c1	i	.
7	Cc1ccccc1-n1c(SCc2c(C)noc2C)nnc1-c1c[nH]c2ccccc12	i	>57
8	CSCCC(NC(=O)OC(C)(C)C)C(=O)NC(CC(C)C)C(N)=O (stereo not given)	i	>57
9	CCCC12CN3CC(C)(CN(C1)C3c1ccc(OC)cc1)C2=O (stereo not given)	i	>57
10	CN1CC(=O)N(CC(=O)NCCc2ccc(F)cc2)c2ccccc2C1=O	i	>57
11	CC(C)=CCC/C(C)=C/COc1c2ccoc2cc2oc(=O)ccc12	i	.
12	Cc1ccc(S(=O)(=O)NCCCCCC(=O)Nc2nccs2)cc1	i	>57
13	CC1=CC(C)C2C(=O)N(CCCN(C)C)C(=O)C2C1 (stereo not given)	i	>57
14	Cc1cccc([N+](=O)[O-])c1C	i	.
15	O=C(O)/C(=C\c1ccncc1)c1cccc2ccccc12	i	.
16	CCCN(C(=O)c1cccs1)c1nnc(-c2ccncc2)s1	i	>57
17	Cc1ccnc(Nc2nc3ccccc3o2)n1	i	.
18	O=C(Nc1ccccc1C(=O)OCC(=O)N1CCc2ccccc2C1)c1ccco1	i	>57
19	CC(C)C(=O)N1c2ccccc2NC2=C(C(=O)CCC2)C1c1ccc(N(C)C)cc1 (stereo not given)	i	>57
20	COc1ccc2nc(Nc3ccc4c(c3)OCO4)sc2c1	i	>57
21	O=S(=O)(c1ccc(Oc2ncnc3scc(-c4ccccc4)c23)cc1)N1CCOCC1	i	>57
22	C=CCn1c(COc2cccc(C)c2)nnc1SCC(=O)NC(=O)NCc1ccco1	i	>57
23	CN1C(=O)CC(N2CCC(c3nc4ccccc4[nH]3)CC2)C1=O (stereo not given)	i	.
24	CC1CCCCN1c1nnc(N)s1 (stereo not given)	i	>57
25	O=C(NCc1cccnc1)C1CCN(S(=O)(=O)c2cccs2)CC1	i	>57
26	CC1(C)Cc2cccc(OCC(=O)Nc3cccnc3)c2O1	i	>57
27	COc1ccc(-c2cc(C(=O)N3CCOCC3)c3cc(C)ccc3n2)cc1	i	.
28	COC(=O)[C@@H]1[C@@H]2C[C@H]3c4[nH]c5ccccc5c4CCN3C[C@@H]2CC[C@@H]1OS(=O)(=O)O	i	.
29	O=C(Nc1ccccc1N1CCCCC1)c1ncoc1-c1ccc(F)cc1	i	>57
30	O=C1c2ccccc2C(=O)N1CCOCCN1C(=O)c2ccccc2C1=O	i	>57
31	O=C(NCc1cccs1)c1nc2ncccn2n1	i	>57
32	CC1CCOC2(O1)C(=O)N(CN1CCN(c3ccccc3F)CC1)c1ccccc12 (stereo not given)	i	>57
33	CCOC(=O)c1[nH]c(C)c(CN(CCc2ccc(OC)c(OC)c2)C(=O)CCCC(=O)O)c1C	i	>57
34	O=C(CC1CCCC1)NCCc1cn2ccccc2n1	i	.
35	CC(C)Cn1c(SCC#N)nc2ccccc2c1=O	i	>57
36	COCCN1C(=O)c2ccccc2C(C(=O)NCCN(C)C)C1c1ccc(F)cc1 (stereo not given)	i	>57
37	COc1ccc(S(=O)(=O)N2CCN(CC(=O)Nc3cccc(F)c3)CC2)cc1	i	>57
38	COC(=O)N1CCC2(CC1)CCN(c1cccc(-c3ccccc3)c1)CC2	i	.
39	COc1ccc(CCNC(=O)CSc2ncnc3c2oc2ccccc23)cc1OC	i	>57
40	CO[C@]1(NC(=O)CSCC#N)C(=O)N2C(C(=O)O)=C(CSc3nnnn3C)CS[C@H]21	i	.
41	CSC1=C(C#N)C(CC(C)C)C2=C(CCCC2=O)N1 (stereo not given)	i	>57
42	CCOC(=O)C1=C(O)C(=O)N(c2ccc(S(N)(=O)=O)cc2)C1c1ccccc1 (stereo not given)	i	>57
43	CCc1cc(=O)oc2cc(C)cc(O)c12	i	.
44	CC(=O)c1cc2c(cc1NC(=O)c1cnc(C)cn1)OCO2	i	>57
45	C/C(N)=C(/C#N)C(=O)CSc1nnc(COc2ccccc2Cl)o1	i	>57
46	N#Cc1c(-c2cccs2)cc(-c2ccccn2)nc1N	i	>57
47	c1ccc(-n2c(Cc3cccnc3)nc3cnccc32)cc1	.	>25.6
48	COc1ccc(NC(=O)NC(C)c2ccncc2)cc1OC (stereo not given)	i	>57
49	CCOc1ccc2nc3cc(N=Nc4ccc(N)nc4N)ccc3c(N)c2c1	i	.
50	CC(=O)Oc1ccc2oc(=O)c3c(c2c1)CCCN3C(=O)CN1CCN(c2ncccn2)CC1	i	>57
51	CCCOc1cccc(C2C(C(=O)c3ccco3)=C(O)C(=O)N2CCN(CC)CC)c1 (stereo not given)	i	>57
52	CCN(CC)CC(=O)Nc1ccc(C)cc1Br	i	>57
53	Cc1csc(NC(=O)C2CCCN(S(=O)(=O)c3ccc(Br)s3)C2)n1 (stereo not given)	i	?
54	Cc1cc(=O)n(CC=C(Cl)Cl)c2ccccc12	i	>57
55	O=C(CCN1C(=O)c2ccccc2C1=O)Nc1ccc(S(=O)(=O)NC2=NCCCCC2)cc1	i	>57
56	Cn1c(=O)cc(N2CCCCC2)[nH]c1=O	i	.
57	CCOC(=O)C1=C(N)OC2=C(C(=O)CC(C)(C)C2)C1c1ccccc1OCC#N (stereo not given)	i	>57
58	CN1C[C@H](C(=O)N[C@]2(C)O[C@]3(O)[C@H]4CCCN4C(=O)[C@H](Cc4ccccc4)N3C2=O)C[C@H]2c3cccc4[nH]cc(c34)C[C@@H]21	i	.
59	CCOC(=O)c1ccccc1NS(=O)(=O)c1ccccc1F	i	>57
60	CCn1c(SCC(=O)Nc2nc(C)c(C)s2)nnc1-c1ccco1	i	>57

# Further records.
No.	structure	YjeE inh	Bst PK mod
61	N#Cc1ccccc1OCCN1C(=O)c2ccccc2C1=O	i	>57
62	CCOC(=O)Nc1cc2c(cc1C(C)=O)OCO2	i	>57
63	CCOC(=O)c1cccc(N2C(=O)c3ccccc3S2(=O)=O)c1	i	>57
64	CCN(CC)S(=O)(=O)c1cc(C(=O)OCC(=O)c2ccc3c(c2)NC(=O)CO3)ccc1F	i	>57
65	Ic1ccc(N2CCN(Cc3c[nH]c4ncccc34)CC2)cc1	i	.
66	O=C(CN1CC(=O)Oc2ccccc21)NCc1ccco1	i	>57
67	c1ccc(C(Cc2nc(-c3ccncc3)no2)c2ccccc2)cc1	i	>57
68	O=C(c1cc2nc(-c3ccco3)cc(C(F)(F)F)n2n1)N1CCN(c2ccc(F)cc2)CC1	i	.
69	CCCCn1c(SCC(N)=O)nnc1-c1cc(OC)c(OC)c(OC)c1	i	>57
70	OC(CN1C2=NCCN2c2ccccc21)c1ccccc1 (stereo not given)	i	>57
71	Cn1c(=O)c2c(nc(C(=N)SCC(=O)O)n2C)n(C)c1=O	i	.
72	CC(C)C(=O)NC(C)C(c1cccs1)N1CCOCC1 (stereo not given)	i	>57
73	COc1ccc(C)cc1NC(=O)c1cnc2scc(C)n2c1=O	i	.
74	O=C(Nc1ccccc1)N1CCC2(CC1)CCN(C(=O)c1ccncc1)CC2	i	.
75	COc1ccccc1N1CCN(C(=O)CN(c2ccccc2OC)S(=O)(=O)c2ccccc2)CC1	i	.
76	O=C(O)C1CC=CCC1C(=O)N1CCCC1 (stereo not given)	i	>57
77	CCN1CCCC1CN(Cc1cc2c(C)cc(C)cc2[nH]c1=O)C(=O)NC1CCCCC1 (stereo not given)	i	>57
78	Cc1ccccc1-c1nc(CN2CCC(C(=O)NCc3ccco3)CC2)c(C)o1	i	>57
79	CN(C)c1ncc2nc(-c3ccccc3)c(=O)n(C)c2n1	i	.
80	CCCCCn1c(CCCNC(=O)CC)nc2ccccc21	i	.
81	CC(C)(C)NCC(O)COc1ccccc1C(C)(C)C (stereo not given)	i	>57
82	COc1cc(C(O)P(=O)(OC2CCCCC2)c2ccc(N(C)C)cc2)cc(OC)c1OC (stereo not given)	i	>57
83	CCOC(=O)c1ccc(NC(=O)CCc2nc(-c3ccc(Cl)cc3)no2)cc1	i	>57
84	COc1ccc(CNc2ncnc3ccc(-c4ccccc4OC)cc23)c(OC)c1	i	.
85	Cc1cc(C)n(C(=O)CCCCCC(=O)n2nc(C)cc2C)n1	i	>57
86	C/C=C/Cn1c(Br)nc2c1c(=O)n(C)c(=O)n2C	i	>57
87	COc1ccc(C(=O)/C=C/N2CCCCC2)cc1OC	i	.
88	O=C(CN1CCC(c2nc3ccccc3s2)CC1)NCc1cccs1	i	>57
89	COc1cc(NS(C)(=O)=O)ccc1Nc1c2ccccc2nc2ccccc12	i	.
90	Cc1cccn2c(=O)c3cc(C(=O)NCc4ccco4)c(=N)n(C(C)C)c3nc12	i	.
91	COc1cc(C2C(C#N)=C(N)OC3=C2C(=O)CCC3)ccc1OC(=O)N1CCOCC1 (stereo not given)	i	>57
92	Cc1nc(NC2CCCCC2)c2nc(-c3ccccc3)n(CCN(C)C)c2n1	i	.
93	Cc1cc(C(=O)COC(=O)c2ccc3c(c2)OCO3)c(C)n1Cc1cccs1	i	.
94	Cc1ccc(C)c(Cn2nnc3c(=O)[nH]c(C4CCN(C(=O)c5cccs5)CC4)nc32)c1	i	>57
95	CC(CCc1ccccc1)NC(=O)c1ccncc1 (stereo not given)	i	>57
96	COc1ccccc1S(=O)(=O)Cc1ccc(C(=O)NCCN(C)C)o1	i	.
97	CCOCCCNC(=O)N1CCOCC1	i	>57
98	Oc1cc(O)c2c(c1)O[C@@H](c1ccc(O)c(O)c1)[C@H](O[C@@]1(c3cc(O)c(O)c(O)c3)Oc3cc(O)cc(O)c3[C@H](O)[C@@H]1O)C2	i	.
99	C=C1C[C@]23C[C@@]1(O)CC[C@H]2[C@@]12C=C[C@H](O)[C@@](C)(C(=O)O1)[C@H]2[C@@H]3C(=O)O	i	.
100	COc1cc(OC)c2cc(-c3ccncc3)cnc2c1	i	.
101	Cn1c(=O)c2c(nc(NCc3ccc4c(c3)OCO4)n2Cc2ccc(F)cc2)n(C)c1=O	.	>25.6
102	O=C(Cn1ncc2c1-c1ccccc1OC2)Nc1ccc(Cl)cn1	i	.
103	COc1ccccc1NS(=O)(=O)c1ccc(C(=O)OCC(=O)NCc2ccco2)cc1	i	>57
104	O=C(CNS(=O)(=O)c1cccc2nsnc12)NCc1ccc(Cl)cc1	i	?
105	O=S(=O)(NC1CCCC1)c1ccc(S(=O)(=O)N(Cc2cccs2)CC2CCCO2)cc1 (stereo not given)	i	>57
106	CCOC(=O)N1CCN(C(=O)CN(c2cc(Cl)ccc2OC)S(=O)(=O)c2ccccc2)CC1	i	.
107	CS(=O)(=O)N1CCC2(CCN(c3ccccn3)CC2)CC1	i	.
108	COc1cccc(C(=O)N(CN2CCCC2=O)c2cccc(Cl)c2)c1OC	i	>57
109	Cc1cc(C(=O)Nc2sc(C)c(C)c2C#N)no1	i	>57
110	Cc1cc2ccccc2c(=O)n1CC(=O)N1CCN(c2cccc(Cl)c2)CC1	i	>57
111	C=CCn1c(NC(C)c2cc(Cl)ccc2O)nc2ccccc21 (stereo not given)	i	.
112	O=C(NCCCCCNC(=O)c1cccnc1)c1cccnc1	i	>57
113	COCCN(CCOC)C(=O)c1cc2sc3ccccc3c2s1	i	>57
114	COc1cccc(-n2nnc3c(=O)n(CC(=O)N4CCCc5ccccc54)cnc32)c1	i	>57
115	O=C(c1ccc2c(c1)OCO2)n1nnc2ccccc21	i	.
116	O=C(NCCCN1CCCCCC1)c1ccc2c(c1)NC(=O)C(N1CCOCC1)S2 (stereo not given)	i	>57
117	CN(C)C(CNC(=O)c1cccc(S(=O)(=O)N2CC3(C)CC2CC(C)(C)C3)c1)c1ccco1 (stereo not given)	i	>57
118	Nn1c(SCC(=O)N2CCCc3ccccc32)nnc1-c1ccccc1	i	>57
119	CC1(C)CCC=[N+]1[O-]	i	.
120	O=C(O)c1ccc(CSc2nnc(COc3ccc(Cl)cc3Cl)o2)cc1	i	.

# Additional records.
No.	structure	YjeE inh	Bst PK mod
121	Cc1ccc(C)c(NC(=O)CSc2nnc(-c3ccncc3)n2N)c1	i	>57
122	Cc1ccc(O)c(C(=O)c2cnn(C(=O)Cc3csc(C)n3)c2)c1	i	>57
123	CC1=C(C#N)C(=O)NC(C)(C)C1	i	>57
124	COc1cccc(C(N)CC(=O)O)c1 (stereo not given)	i	.
125	CN(C)c1ncc2nc(-c3cccs3)c(=O)n(Cc3cccs3)c2n1	i	.
126	COC(=O)CCCC(=O)N1CCOCCN(C(=O)CCCC(=O)OC)CCOCC1	i	>57

# Not all compounds are listed (hit frequency here may not be typical).
